From PubChem BioAssay
HNF4A DNA FP = change in binding of human HNF4 alpha to DNA; P41235; HNF4a-FITC DNA binding, fluorescence polarization, 1 h; activity change, % at 10 µM; 0.3% of 360,000 active; AID 1224865; in the data active = activity change above about 30%, passing the limit was not always enough;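 note: controls were the assay level and a saturating level of protein; the project sought stronger binding though the title names inhibitors; some compounds called inactive have numbers as strong as hits; positive values seem to mean higher polarization but the record does not say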
Target sequence (P41235 whole entry, looked up): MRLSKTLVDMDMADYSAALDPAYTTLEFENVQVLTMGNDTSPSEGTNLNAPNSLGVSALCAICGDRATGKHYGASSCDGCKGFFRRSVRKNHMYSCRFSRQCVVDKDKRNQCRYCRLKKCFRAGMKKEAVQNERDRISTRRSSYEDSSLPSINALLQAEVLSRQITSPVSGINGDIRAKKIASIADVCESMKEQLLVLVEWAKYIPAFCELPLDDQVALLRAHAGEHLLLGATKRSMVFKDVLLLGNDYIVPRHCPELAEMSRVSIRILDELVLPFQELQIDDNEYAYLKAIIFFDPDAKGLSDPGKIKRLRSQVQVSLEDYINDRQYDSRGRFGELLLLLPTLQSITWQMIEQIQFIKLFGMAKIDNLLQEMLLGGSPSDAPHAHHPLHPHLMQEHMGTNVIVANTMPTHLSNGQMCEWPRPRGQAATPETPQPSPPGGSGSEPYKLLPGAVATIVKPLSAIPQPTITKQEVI
A1 inh = inhibitors of the anti-apoptotic protein A1, read as caspase activation | caspase activation, % (concentration not given with the values) | 0.066% of 330,000 active | MEF A1-2A-BIM cells, Caspase-Glo 3/7 luminescence, 3 h; percent of clofoctol response, vehicle zero;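 active = over half of replicate activation scores above 10%, or exactly half above 10 with the replicate mean above 10; inconclusive = replicate mean below 10 yet half the replicates above 10; inactive = over half of replicates below 10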;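 note: wells of about 30 µL received 50 nL stock; many hits fall short of the cut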
Ecoli growth = E. coli growth inhibition; Escherichia coli growth, OD600, 23 h; hits give low values; OD600 absorbance (no concentration beside the values); 0.21% of 330,000 active; AID 1053175;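 active = OD600 absorbance below the run mean of sample wells minus 3.6 SD, in any replicate, cut at about 0.56 in these data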;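 note: stock transfer was 300 nL into about 60 µL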
LANA-H2B inh = blocks KSHV LANA binding to histone H2A/H2B | inhibition, % (concentration not given with the values) | cell-free LANA-H2A/H2B peptide, fluorescence polarization | Q9QR71 | 0.6% of 320,000 active | AID 2629; in the data active = inhibition mostly above about 10%, no sharp cut-off; inactive = mostly below about 6.7%;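 note: stock transfer was 7.5 nL into about 10 µL; 0% = median of vehicle wells and 100% = median of positive control wells; one replicate is shown; the record names a cut of 25% in any replicate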
UCH37 DUB inh = blocks the human deubiquitinase UCH37; 0.33% of 330,000 active; purified proteasome/UCH37, Ub-AMC cleavage fluorescence; Q9Y5K5; inhibition, % (concentration not given with the values);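 active = mean of two replicates above 20%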;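 note: 0% = compound-free wells with enzyme and 100% = wells lacking proteasome; stock transfer was 100 nL into about 20 µL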
Target sequence (Q9Y5K5 whole entry, looked up): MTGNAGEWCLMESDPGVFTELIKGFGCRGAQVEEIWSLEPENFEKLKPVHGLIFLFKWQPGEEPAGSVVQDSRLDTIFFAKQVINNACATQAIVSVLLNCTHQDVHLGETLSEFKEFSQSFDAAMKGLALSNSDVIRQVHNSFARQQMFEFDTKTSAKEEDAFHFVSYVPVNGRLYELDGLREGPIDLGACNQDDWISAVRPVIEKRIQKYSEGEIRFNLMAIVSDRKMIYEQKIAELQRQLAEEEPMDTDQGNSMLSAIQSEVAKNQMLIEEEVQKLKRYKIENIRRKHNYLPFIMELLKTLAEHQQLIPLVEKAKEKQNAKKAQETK
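Material: human UCH37 enzyme supplied as purified proteasome complex. Measure: % inhibition of Ub-AMC cleavage fluorescence. Medium: pH 7.4 Tris-HCl (50 mM) with ovalbumin, ATP-MgCl2, DTT. Times: 30 min preincubation with enzyme, 25 min cleavage at room temperature. Detection: AMC fluorescence intensity at 355/460 nm.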
B2AR ag = activates human beta-2 adrenergic receptor causing internalization | response, % (concentration not given with the values) | Am2.2-beta2AR cells, FAP receptor internalization, flow cytometry; reference of the scale not given here | P07550 | 0.43% of 340,000 active;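 active = response above a set limit, near 3 SD of response in nonfluorescent compounds, cut at about 42% in these data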;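 note: stock transfer was 100 nL into about 11 µL; a reference agonist was the positive control; negative values mostly stem from fluorescent compounds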
Vif A3G = HIV-1 Vif–A3G interaction blockers – biochemical, TR-FRET, GST-Vif 1-94, biotin-A3G peptide, dose response retest, primary screen (AID 1117319) | TR-FRET GST-Vif / biotin-A3G peptide binding; higher % means a stronger effect; test concentration not given here; strong numbers were not always called active | inhibition, %, or IC50 in µM where a hit was titrated | 0.57% of 260,000 active;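 active = above the screen mean plus three standard deviations and confirmed in dose response; inconclusive = results disagree or hit not tested in dose response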;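 note: Vif residues 1-94 fused to GST binding biotinylated APOBEC3G peptide 110-148; 0% = full assay without inhibitor and 100% = GST in place of GST-Vif; retest series ran down from 100 µM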
* marks the source's active call; other numbers are inactive results; ? = inconclusive; . = no result given; & = joins results of further samples.

Start of the data: the first 3 compounds, ahead of the listing:
SMILES | HNF4A DNA FP | A1 inh | Ecoli growth | LANA-H2B inh | UCH37 DUB inh | B2AR ag | Vif A3G
CCOC(=O)C1(Cc2ccc(Cl)cc2)CCN(C(=O)c2cscn2)CC1 | -3.0 | 0.4 | 0.64 | 0.3 | 1.3 | 1 | 12%
O=C(CSc1nnc(-c2ccc(F)cc2)c2ccccc12)Nc1ccccc1Cl | 0.4 | 0.0 | 0.69 | 4.6 | 1.4 | 12 | -1%
COc1ccc(Nc2oc(COc3ccc(C)cc3)nc2C#N)cc1 | 1.7 | 0.0 | 0.73 | 8.3 | -0.1 | -4 | -2%

The whole of this part, previewed entries included:
SMILES | HNF4A DNA FP | A1 inh | Ecoli growth | LANA-H2B inh | UCH37 DUB inh | B2AR ag | Vif A3G
CCOC(=O)C1(Cc2ccc(Cl)cc2)CCN(C(=O)c2cscn2)CC1 | -3.0 | 0.4 | 0.64 | 0.3 | 1.3 | 1 | 12%
O=C(CSc1nnc(-c2ccc(F)cc2)c2ccccc12)Nc1ccccc1Cl | 0.4 | 0.0 | 0.69 | 4.6 | 1.4 | 12 | -1%
COc1ccc(Nc2oc(COc3ccc(C)cc3)nc2C#N)cc1 | 1.7 | 0.0 | 0.73 | 8.3 | -0.1 | -4 | -2%
CC1(C)CC(=O)C/C(=N/NC(=O)c2ccc(-c3ccccc3)cc2)C1 | 19 | 0.5 | . | 5.2 | . | -14 | ?
COc1ccc(-c2c(C)n([O-])c3c([n+]2=O)CCCC3)cc1 | -0.9 | 1.1 | 0.71 | 1.5 | 1.4 | 3 | 2%
CCOc1cc(/C=N/NC(=O)CCn2nc(C)cc2C)ccc1O | 1.3 | 0.4 | . | 4.8 | . | 5 | .
CCC(CC)C(=O)Nc1cc(NC(=O)C(CC)CC)cc(C(=O)O)c1 | 2.8 | -0.1 | 0.72 | -8.4 | 1.4 | -3 | 0%
O=C(CSC(=S)N1CCCCC1)c1ccccc1 | 2.6 | -14 | 0.69 | -1.4 | 39* | -5 | .
COC(=O)c1ccccc1OCC(=O)N1CCN(c2ccc(Cl)cc2)CC1 | 2.3 | -0.4 | 0.72 | 3.1 | 2.3 | 2 | -1%
O=C(CCCC(=O)N(CC(=O)NC1CCCC1)Cc1ccc2c(c1)OCO2)Nc1ccccn1 | 0.6 | -0.1 | 0.79 | -5.1 | -3.5 | -2 | -3%&-5%
COc1ccccc1C1c2c(C)nn(-c3ccccc3)c2NC(=O)C1NC(=O)c1ccccc1 (stereo not given) | -2.1 | 0.4 | 0.71 | 2.5 | 2.9 | -8 | .
COC(=O)c1sccc1NC(=O)/C=C/C(=O)O | 3.2 | -0.3 | 0.67 | 2.6 | 4.2 | 4 | .
CNC(=O)COC(=O)COc1ccc2c(C)cc(=O)oc2c1 | 2.3 | 0.0 | 0.67 | 2.2 | -30 | -1 | -7%
C=CCn1c(SCC(=O)Nc2cc(C)on2)nc2sc3c(c2c1=O)CCCC3 | 1.5 | 0.3 | 0.68 | 1.4 | 0.1 | -6 | ?
CCN(CC)CCCNC(=O)C1CCC(=O)N(c2ccc(OC)cc2)C1c1ccc(F)cc1 (stereo not given) | -2.5 | -0.3 | 0.7 | 3.0 | -2.0 | -3 | ?
Cc1cc(C)c(Cc2c(C)nc3c(C(=O)NCc4ccco4)cnn3c2C)c(C)c1 | -2.7 | 0.6 | 0.68 | -2.7 | -117 | 0 | 77%
CCCCCCC1CC(CCC(=O)Nc2ccc([N+](=O)[O-])cc2)C(=O)O1 (stereo not given) | 0.2 | -0.4 | 0.75 | 0.9 | 2.2 | -5 | 4%
O=c1[nH]c(=S)c2c(n1-c1ccccc1)CCC2 | -0.5 | 0.0 | 0.7 | -7.2 | 16 | 0 | -10%
CCOC(=O)c1ccc(S(=O)(=O)Nc2cc(C(=O)O)ccc2Cl)cc1 | 1.8 | 0.0 | 0.67 | -0.2 | 0.4 | 5 | 4%
CC(C)(C)NC(=O)c1cnn2c1NC(c1ccc(F)cc1)CC2C(F)(F)F (stereo not given) | -1.1 | 1.2 | 0.73 | 5.4 | 1.4 | -8 | 67%
COCC1CCCN(Cc2cn(Cc3ccccc3)nc2-c2cc3ccccc3o2)C1 (stereo not given) | 4.0 | 0.0 | 0.69 | -0.1 | -1.2 | 23 | -5%
CCOc1ccc(NS(=O)(=O)c2ccc(C(=O)N(C)CCc3ccc(OC)c(OC)c3)cc2)cc1 | -1.2 | 0.0 | 0.7 | 0.1 | 0.4 | 20 | .
Cc1ccc(NC(=O)CNc2ccccc2N2CCCC2=O)cc1S(=O)(=O)N1CCOCC1 | 0.1 | . | 0.71 | . | -0.1 | 1 | 0%
Cn1c(=O)cc(SCC(=O)N2CCN(C3CCCCC3)CC2)c2ccccc21 | -2.4 | 0.9 | 0.67 | 6.3 | 2.3 | -10 | .
COc1ccc(N(CC(=O)Nc2cc(C(=O)O)ccc2C)S(=O)(=O)c2c(C)noc2C)cc1 | 5.2 | -0.2 | . | -1.0 | . | 4 | ?
COc1ccccc1C(=O)NC(CCSC)C(=O)NNC(=O)c1ccc(F)cc1 (stereo not given) | 4.7 | -0.6 | 0.7 | -6.9 | 2.4 | 7 | -7%
COc1ccc(CCC(=O)N(c2nnc(-c3cccnc3)s2)C(C)C)cc1 | 3.0 | 0.3 | 0.69 | 0.5 | 5.9 | -1 | .
CCn1c(O)c(C=NCc2ccccc2)sc1=S | -1.2 | -0.3 | 0.62 | -4.5 | 6.1 | -8 | -8%
O=C(NCCCc1ccccc1)c1ccccc1 | -0.3 | -0.7 | 0.73 | -1.5 | 2.0 | -5 | 0%
CC(C)CN(C(=O)COC(=O)CSc1ccccc1)c1c(N)n(Cc2ccccc2)c(=O)[nH]c1=O | -1.6 | 1.5 | 0.72 | 1.7 | 2.9 | 9 | 1%

An excerpt from above with just Ecoli growth and A1 inh:
compound | Ecoli growth | A1 inh
Cn1c(=O)cc(SCC(=O)N2CCN(C3CCCCC3)CC2)c2ccccc21 | 0.67 | 0.9
COc1ccccc1C(=O)NC(CCSC)C(=O)NNC(=O)c1ccc(F)cc1 (stereo not given) | 0.7 | -0.6

(further entries)
SMILES | HNF4A DNA FP | A1 inh | Ecoli growth | LANA-H2B inh | UCH37 DUB inh | B2AR ag | Vif A3G
CCOc1ccc(NC(=O)CCC(=O)NNC(=O)NC2CCCCC2)cc1 | 8.2 | -0.2 | 0.7 | 4.8 | 4.6 | -3 | .
COc1cccc(NC(=O)CN(C)C(=O)CSc2nc3ccccc3s2)c1 | 1.8 | -0.2 | 0.68 | -4.9 | 3.0 | 7 | 2%
COc1ccc(NS(=O)(=O)c2cccc(NC(=O)NCCCl)c2)cc1 | -4.3 | 0.0 | 0.73 | 1.8 | 2.5 | 4 | 12%
COc1ccc(-c2csc(NC(=O)c3ccc(C(C)(C)C)cc3)c2C(=O)O)cc1 | . | 0.0 | 0.66 | 1.9 | -25 | 9 | .
O=Cc1cn(CCC(=O)O)nc1-c1cc2ccccc2o1 | 4.5 | 1.8 | 0.64 | 11 | 0.8 | 3 | .
O=C(Cn1nnc(-c2ccncc2)n1)N(C1CCCCC1)C1CCCCC1 | -3.1 | -0.2 | 0.75 | -1.0 | 2.5 | -3 | -1%
CCCCCCCOC(=O)c1ccc(OC(=O)c2cccnc2)cc1 | -1.3 | -0.4 | 0.64 | -0.2 | 4.7 | -3 | 18%
CC(C)c1ccc2c(c1)C1Cc3ccccc3C1N2 (stereo not given) | -0.3 | 0.1 | 0.7 | 1.8 | -1.9 | -2 | 6%
C=CCC1S/C(=N/N=C/c2cccs2)NC1=O (stereo not given) | 4.4 | 0.9 | . | 1.9 | . | 1 | 6%
COc1ccc2c(c1)OC[C@H]1[C@H]2N2C(=O)[C@H](C)NC(=O)[C@@]2(C)[C@H]1c1ccccc1 | -2.5 | 1.1 | . | 4.7 | 4.1 | -2 | .
COc1ccc(-c2csc(N3CCC(c4ccccc4)CC3)n2)cc1 | 1.4 | 1.2 | 0.74 | 0.6 | 0.8 | 8 | 8%
CSc1nc(O)c(/C=C2\C=Nc3ccccc32)[nH]1 | 2.2 | 1.1 | . | 2.7 | . | -6 | .
CCCCOC(=O)CN1C(=O)c2ccc(C(=O)OCCCC)cc2C1=O | 0.9 | -0.4 | 0.71 | -1.5 | -0.4 | -4 | -1%
COC(=O)c1ccccc1NC(=O)C1CCCN(S(=O)(=O)c2ccc(F)cc2)C1 (stereo not given) | 1.7 | 1.0 | 0.75 | 7.0 | 4.1 | 6 | 6%
O=c1[nH]c2cc3c(cc2cc1CN(CC1CCCO1)S(=O)(=O)c1ccc(Cl)cc1)OCCO3 (stereo not given) | -0.8 | 0.1 | 0.69 | 2.2 | -29 | -6 | 8%&-34%
COc1ccc(NC(=O)C2C3CCC4C(CCC32)C4(Cl)Cl)cc1 (stereo not given) | -0.6 | 0.6 | 0.72 | -1.3 | 1.7 | 3 | 6%
C=CCn1c(C)cc(C(=O)CSc2nnc3n(CCC)c(=O)c4ccccc4n23)c1C | 1.8 | . | 0.73 | . | -3.5 | 3 | .
CCOC(=O)c1cc(S(=O)(=O)N(C)Cc2ccccc2)cn1C | 0.9 | 0.8 | 0.66 | 4.6 | 4.3 | -7 | .
CN1CCN(C(c2ccc(Br)cc2)c2cc(Cl)c3cccnc3c2O)CC1 (stereo not given) | -0.5 | -0.4 | . | 4.9 | . | 38 | .
Cc1nn(-c2ccccc2)c(C)c1/C=N/n1c(-c2ccncc2)n[nH]c1=S | 0.7 | 0.7 | . | -4.7 | . | -8 | -5%
Cc1nnsc1C(=O)N1CCN(c2ccc(C#N)cn2)CC1 | 1.4 | -0.5 | 0.66 | 5.6 | 3.5 | 2 | .
O=C(N/N=C/c1cc2c(cc1Br)OCO2)c1c[nH]c2ccccc12 | 4.8 | 0.4 | . | -0.8 | . | 26 | -5%
Cc1ccc(-c2cc(C(=O)N/N=C/C(Br)=C/c3ccccc3)n[nH]2)o1 | 0.8 | -0.5 | . | -3.0 | . | -6 | 27%
COc1cc(C(=O)N2CCN(c3ccccc3)CC2)c2ccccc2n1 | 5.1 | . | 0.68 | . | 0.1 | 32 | -4%
COC(=O)CC1C(=O)NCCN1C(=O)CSc1nc2cc(Cl)ccc2o1 (stereo not given) | 0.6 | 0.7 | 0.68 | 1.5 | 2.8 | -2 | .
Cc1cc(=O)[nH]c(SCc2cn3ccccc3n2)n1 | -1.6 | -1.0 | 0.69 | -0.8 | 6.4 | 5 | 5%
C/C=C(/C)C(=O)O[C@@H]1[C@H](OC(=O)C=C(C)C)c2c(ccc3ccc(=O)oc23)OC1(C)C | -4.2 | 1.4 | . | 2.7 | -0.3 | 0 | 3%
Cc1nnn(-c2nonc2N)c1C(=O)N/N=C/c1cccc2ccccc12 | 11 | -0.1 | . | 0.3 | . | 12 | 7%
CN(C)C1(CNC(=O)c2cccc(S(=O)(=O)Nc3ccc(Br)cc3)c2)CCCCC1 | 1.2 | 0.0 | 0.7 | -5.0 | 4.0 | 16 | .
Cc1cccc(-n2c(SCC(=O)Nc3ncc(Cl)cc3Cl)nc3ccccc32)c1 | 0.9 | -0.7 | 0.66 | 0.3 | 1.2 | -13 | 4%
Cc1ccc(S(=O)(=O)Nc2cccnc2)cc1 | -4.6 | 0.3 | 0.66 | 0.4 | -1.5 | 4 | 7%
COc1ccc(C)cc1S(=O)(=O)N(C)CC(=O)N1CCCC1 | 1.1 | -0.6 | 0.69 | 2.4 | 4.6 | -5 | -4%
CC1CC(OC(=O)CN2CCCCC2)CC(C)(C)C1 (stereo not given) | . | 0.0 | . | 5.0 | . | . | 1%
Cc1ccsc1/C=N\NC(=O)CC(=O)NCc1ccccc1 | 0.2 | 0.5 | . | 0.2 | . | 2 | -6%
COc1ccc(OC)c(CN2CCN(C(=O)c3cc4ccccc4cc3O)CC2)c1 | 2.2 | -0.1 | 0.68 | 1.6 | 4.5 | 4 | 5%
